Vaccinia mCherry = qHTS for Stage-Specific Inhibitors of Vaccinia Orthopoxvirus: mCherry Reporter Primary qHTS; AID 720579, 2013; Vaccinia virus mCherry reporter infection, fluorescence; about a quarter of the inactives have no number; Potency, µM (titrated, usually from 36.5 µM), without a hit: at the highest dose activity change, negative = inhibition, actives largely listed as inhibitors; actives 0.63% (n = 310,000); active = well fitted inhibition curve with a large enough effect; inconclusive = small, poorly fitted or top-dose-only effect; inactive = no such curve, though single readings can be large or run the other way; tested in A549 cells; also: nearly all actives have a fitted effect of over 35% in size; inactives centre near -10
Vaccinia Venus = qHTS for Stage-Specific Inhibitors of Vaccinia Orthopoxvirus: Venus Reporter Primary qHTS; Vaccinia virus Venus reporter expression, fluorescence; Potency, µM (titrated, usually from 36.5 µM), without a hit: at the top dose activity change, negative = inhibition, most hits filed as inhibitors; actives 0.46% (n = 330,000); AID 720580, 2013; active means well fitted inhibition curve with a large enough effect; inconclusive means small, poorly fitted or top-dose-only effect; inactive means no such curve, though single readings can be large or run the other way; tested in A549 cells; also: nearly all actives have a fitted effect of over 30% in size; inactives centre near -10
Numbers without * were called inactive; i = inactive; ? = inconclusive; . = not tested or not shown; & = joins results of further samples; [ ] = another dose, or the depositor's remark. % is scaled to controls: 0 for no effect and ±100 for the full control effect; potency is read from the fitted curve at half-maximal effect.

Compound,Vaccinia mCherry,Vaccinia Venus
CCC1(C)Cc2c(sc3nc(NC)n(C)c(=O)c23)CO1 (configuration not stated),13%,-14%
Cn1c(=O)c2c(-c3ccccc3)n(N3CCOCC3)cc2n(C)c1=O,-3%,1%
CC1=C(C(=O)OCc2ccccc2)C(c2ccccc2OS(=O)(=O)c2ccc([N+](=O)[O-])cc2)NC(=O)N1CCCC(=O)O (configuration not stated),?,?
Cc1ccc(-c2csc3ncnc(NCCC(=O)O)c23)cc1,i,-11%
Cc1cc(C)nc(CCNC(=O)CC2C(=O)NCCN2Cc2ccccc2)n1 (configuration not stated),-5%,-7%
COc1ccc(C2CN=NC2C(=O)c2ccccc2)cc1 (configuration not stated),-10%,-20%
Cc1cc(C)n2nc(SCC(=O)Nc3ccc(F)cc3)nc2n1,-10%,-7%
NCC1C2CCC(O2)C1CO (configuration not stated),i,-12%

Complete entries from above. Values in the order: Vaccinia mCherry | Vaccinia Venus
Profile of Cc1ccc(-c2csc3ncnc(NCCC(=O)O)c23)cc1 : i | -11%
Profile of COc1ccc(C2CN=NC2C(=O)c2ccccc2)cc1 (configuration not stated) : -10% | -20%
Profile of Cc1cc(C)n2nc(SCC(=O)Nc3ccc(F)cc3)nc2n1 : -10% | -7%

Following part:
Compound,Vaccinia mCherry,Vaccinia Venus
O=C(/C=C1\NCC2c3ccccc3CCN2C1=O)c1ccccc1 (configuration not stated),-11%,-17%
CCOc1ccccc1CNC(=O)C1CCN(c2nc3ccccc3nc2C(F)(F)F)CC1,7%,9%
CNC(=O)/C(C#N)=C/c1ccc(-c2ccc(Cl)cc2)o1,i,3%
CSC(C1CCCC1)n1nnc2ccccc21 (configuration not stated),-26%,-4%
CCCCNc1c(-c2ccc(SC(C)CC)cc2)nc2ccc(Cl)cn12 (configuration not stated),-15%,-13%
Nc1nc(NC(=O)/C=C\C(=O)O)nn1-c1ccccc1,-14%,-12%
Clc1ccc(-c2cnc3ccccc3n2)cc1,-12%,-3%
Cc1ccccc1S(=O)(=O)Cc1ccc(C(=O)NC2CCCCC2)o1,-7%&-10%,-4%&-23%

Some values from above.
Vaccinia mCherry with `O=C(/C=C1\NCC2c3ccccc3CCN2C1=O)c1ccccc1` (configuration not stated) is entered as -11%
Vaccinia mCherry with `Cc1cc(C)n2nc(SCC(=O)Nc3ccc(F)cc3)nc2n1` is entered as -10%
Vaccinia Venus with `CCC1(C)Cc2c(sc3nc(NC)n(C)c(=O)c23)CO1` (configuration not stated) is entered as -14%
Vaccinia mCherry with `Cn1c(=O)c2c(-c3ccccc3)n(N3CCOCC3)cc2n(C)c1=O` is entered as -3%

New compounds follow:
Compound,Vaccinia mCherry,Vaccinia Venus
CC12CCCCC1NS(=O)(=O)OC2 (configuration not stated),i,-8%
CSc1nc(N)c(C#N)c(-c2ccc(Cl)cc2)c1C#N,.,?
CCOc1ccc(C2C(C#N)=C(N)N(c3sc4c(c3C#N)CCCC4)C3=C2C(=O)CCC3)cc1 (configuration not stated),-3%,23%
NC(=O)C1=C[C@H](c2csc3ccccc23)C[C@H](OCCCCO)O1,-2%,-17%
Cc1ccc(NC(=O)N2CC3CCCN3c3ccccc32)c(C)c1 (configuration not stated),2%,-4%
Cc1ccc(N2CCN(C(=O)c3cn(C)c4ccc(S(=O)(=O)N(C)C)cc4c3=O)CC2C)cc1 (configuration not stated),i,-20%
COC(=O)c1ccccc1NC(=O)c1cc(=O)c2ccc(C)c(C)c2o1,-2%,5%
Cc1cccc(CNc2cc(-c3ccc(N(C)C)cc3)ncn2)c1,-12%,-12%
C/C(=N\NC(=O)C1COc2ccccc2O1)c1ccc(C)o1 (configuration not stated),-16%,-15%
CN(CC(=O)Nc1ccc(Cl)cc1)C(=O)c1cccc(S(=O)(=O)NCc2ccccc2)c1,-14%,?
CN(C)CCCN(C(=O)c1ccc2ccccc2c1)c1nc2cc3c(cc2s1)OCO3,?,?
NC(=O)c1ccsc1NC(=O)CSc1n[nH]c(N)n1,i,-2%
CCc1cccc(CC)c1-n1nnc2c(sc3nc(C)cc(C)c32)c1=O,-13%,-7%
Cc1cc(C)cc(NS(=O)(=O)c2c(C)[nH]c(=O)[nH]c2=O)c1,-14%,-6%
C=CCOc1ccc(C2NC(=O)c3ccccc3O2)cc1OC (configuration not stated),-24%,-13%
CCNC(=O)NC(=O)COC(=O)C1CSC2(C)CCC(=O)N12 (configuration not stated),i,-16%
CC(=O)c1cccc(NC(=O)N2CCCC2C(=O)Nc2ccc3c(c2)OCCO3)c1 (configuration not stated),i,-7%
CCOC(=O)C1=NOC(CNc2ncc(C(F)(F)F)cc2Cl)C1 (configuration not stated),i,-15%
Cn1c(=O)c2cc(NC(=O)c3ccccc3Cl)c(=O)oc2n(C)c1=O,i,-11%
Cn1c(CNc2ccccc2O)nc2ccccc21,i,-2%
Cc1nn(-c2ccccc2)c(C)c1NC(=O)COC(=O)c1cc(Br)ccc1O,-12%,-9%
OCCN1CCN(c2ncnc3c2ncn3[C@H]2CN(Cc3ccc(-c4ccccc4)cc3)C[C@@H](CO)O2)CC1,i,-24%
O=C(N/N=C\c1ccc(-c2ccccc2[N+](=O)[O-])o1)C1COc2ccccc2O1 (configuration not stated),-12%,-22%
CC(C)COc1ccc(C(=O)OCCN2CCOCC2)cc1,i,-3%
Cc1cccc(NC(=O)CS(=O)CC(=O)Nc2cnc3ccccc3c2)c1C (configuration not stated),i,-5%
CC(C)c1nnc(NC(=O)CS(=O)(=O)Cc2ccccc2)s1,0%,-10%
CCOc1ccc(CN2C(=O)c3ccccc3Sc3ccc(C(=O)OC)cc32)cc1,-12%,-14%
CN(C)CCCn1c(SCCN2C(=O)c3ccccc3C2=O)nc2ccccc2c1=O,-10%,0%
CCOC(=O)C1CCN(S(=O)(=O)c2cnc[nH]2)CC1,i,-6%
Nn1c(SCC(=O)Nc2ccc3c(c2)OCO3)nnc1C1CCCCC1,-11%,-6%
CCOC(=O)c1c(NC(=O)c2cc(C)on2)sc(C)c1C,-14%[7.34 µM],-7%[7.34 µM]
Cc1ccnc(NC(=O)C2COc3ccccc3O2)c1 (configuration not stated),i,-11%
COCCCNC(=O)CS(=O)Cc1nc(-c2ccccc2C)oc1C (configuration not stated),i,-6%
CCCN(CCC)CCCNC(=O)C(NS(=O)(=O)c1ccc2c(c1)CCC(=O)N2)c1ccccc1 (configuration not stated),i,-3%
CCOC(=O)c1c(-c2ccc(C)cc2)csc1NC(=O)c1cc2ccccc2oc1=O,i,-3%
CCOC(=O)c1cc(-c2ccc(OC)c(S(=O)(=O)NC3CCCCC3)c2)on1,-7%,-8%
COc1cc(CNc2nc3ccccc3s2)cc(OC)c1OC,i,-21%
O=C(O)c1ccc(NCc2nc3ccccc3n2Cc2ccccc2F)cc1,?,-11%
N#Cc1ccc2c(c1)nnn2-c1ccccc1,i,-4%
O=C1CCCc2ccccc2N1Cc1ccccc1Cl,-6%,-18%

The closing 2 entries of the part above lead into the next.
Compound,Vaccinia mCherry,Vaccinia Venus
N#Cc1ccc2c(c1)nnn2-c1ccccc1,i,-4%
O=C1CCCc2ccccc2N1Cc1ccccc1Cl,-6%,-18%
CCc1noc(C)c1C(=O)Nc1ccc(F)c(F)c1,-6%,-3%
Cc1cc(C)cc(NC(=O)N(C)Cc2ccccc2)c1,i,-18%
CC(=O)N1CCN(c2ccc(NC(=O)c3ccc4c(c3)OCCO4)cc2)CC1,i,-12%
Cc1cccnc1NC(=O)c1ccc2c(c1)OCCO2,-15%,-5%
O=C(N[C@H]1C/C=C\C(c2ccc(F)cc2)N(Cc2ccccc2)C(=O)C1)OCC1c2ccccc2-c2ccccc21 (some centres not stated),-9%,-17%
CC(=O)c1cccc(NC(=O)C2CC(=O)N(CCc3ccccc3)C2)c1 (configuration not stated),i,6%
C/C(=N\NC(=O)COc1cccc2ccccc12)c1cccs1,-20%,-23%
O=C(Nc1ccc(N2CCOCC2)cc1N1CCOCC1)c1ccc(F)cc1,-18%,-7%
CC(NCCS(=O)(=O)c1ccc(Cl)cc1)c1cccc(Cl)c1 (configuration not stated),-29%,?
C[C@H](NC(=O)c1[nH]cnc1C(=O)Nc1ccc(CNC(=O)OC(C)(C)C)cc1)C(=O)OCc1ccccc1,?,-25%
CCN(C(=O)COc1nc(C)cc(C)c1C#N)c1ccccc1,-16%,-7%
Cc1ccc(NS(=O)(=O)c2ccc(C(=O)N3CCOCC3)cc2)cc1,-28%,-21%
CCOC(=O)C1=C(C)NC(=S)NC1c1ccc(OC(=O)c2ccco2)cc1 (configuration not stated),-10%,-1%
CN(C(=O)COC(=O)/C=C/c1cccs1)C1CCCCC1,i,2%
CC(=O)c1ccc(-c2cc(F)cc3c2OC(CNC(=O)c2ccc[n+]([O-])c2)C3)s1 (configuration not stated),-4%,0%
O=[N+]([O-])c1ccccc1Oc1ncccc1[N+](=O)[O-],-25%,-6%
CN1CCN(C(=O)C2CCN(c3ncc(C(F)(F)F)cc3Cl)CC2)CC1,i,-18%
CC(C)C[C@H](N)c1nnc(SCc2ccc(Cl)cc2Cl)o1,-6%,0%
CC1CCN(C(=O)Nc2cccc(NC(=O)N3CCC(C)CC3)c2)CC1,.,?
O=c1c(C(c2ccc(Cl)cc2)c2c(O)nc3n(c2=O)CCCS3)c(O)nc2n1CCCS2,-3%,-15%
COc1cc(C(O)c2nc(-c3cncnc3)cs2)ccc1F (configuration not stated),i,-10%
CCOCCSc1nc2c(c(-c3cccs3)c1C#N)CC/C2=C/c1cccs1,-13%,3%
COc1ccccc1N=C1SC(C(=O)Nc2ccc(F)cc2)CC(=O)N1C (configuration not stated),-24%,-20%
C1CCN(Cc2nnnn2C2CCCC2)CC1,-5%,-11%
COC(=O)c1ccc(NC(C)C(=O)OC)c([N+](=O)[O-])c1 (configuration not stated),-14%,-7%
CC1=C(C(=O)N2CCOCC2)C(c2ccc(OC(F)F)cc2)NC(=S)N1c1ccccc1 (configuration not stated),3%,-4%
NS(=O)(=O)c1ccc(NC(=O)CN2C(=O)c3ccccc3C2=O)cc1,-17%,15%
COC(=O)c1ccc(C(=O)NC2CCCc3c2cnn3-c2cc(F)cc(F)c2)nc1 (configuration not stated),?,-26%
CCCCNC(=O)Nc1ccccc1Br,-2%,-15%
CC(C)(CNC(=O)c1cccc(S(=O)(=O)Nc2ccc(Br)cc2)c1)N1CCOCC1,-19%,-10%
C=CCn1c(SCC(=O)Nc2sccc2C(N)=O)nc2ccccc2c1=O,.,?
O=C(Nc1ccc2ncccc2c1)c1cc(Cl)ccc1Cl,-1%,-12%
CCCS(=O)(=O)c1c(S(=O)(=O)CCC)c2c(C)cccn2c1C(=O)N/N=C/c1cc(O)cc(O)c1,?,?
NC(N)=Nc1nc(-c2ccccc2)c2ccccc2n1,-21%,?
COc1cccc(C(=O)NCC2Cc3cccc(-c4nc(C)cnc4C)c3O2)c1OC (configuration not stated),26%,50%[activator]
COc1ccccc1C(=O)COC(=O)c1c(-c2ccccc2)noc1C,-16%,-22%
Cc1ccc(CNC(=O)CNC(=O)[C@@H]2Cc3ccccc3CN2)cc1,i,-6%
COC(=O)c1c(NC(=O)C2CCCCC2)sc2c1CC(C)(C)NC2(C)C,-15%,-12%
COc1cccc(NC(=O)C(=O)NCC2CCCN2S(=O)(=O)c2cccs2)c1 (configuration not stated),i,-12%
Cn1c(SCC(=O)N/N=C/c2ccccn2)nnc1-c1ccccc1,-1%[7.34 µM],-11%[7.34 µM]
Cc1ccc(N=CC2=C(O)CC(c3ccc(Cl)cc3)CC2=O)cc1 (configuration not stated),i,-12%
O=C(c1ccco1)c1cn(CCOc2ccc(Cl)cc2)c2ccccc12,-1%,-9%
O=[N+]([O-])c1ccc(Cl)c2c1C1C=CCC1C(c1ccccn1)N2 (configuration not stated),-8%,14%
O=C(O)C(CCc1ccccc1)N1CCOCC1 (configuration not stated),i,3%
CCN1C(=O)[C@H]2[C@@H](c3ccc(-c4cccc(Cl)c4)cc3)N[C@@](Cc3ccccc3)(C(=O)OC)[C@H]2C1=O,?,-24%
Cc1ccc2nc(-c3ccc(F)cc3)c(Cc3cccc(Cl)c3)n2c1,-6%,0%
CCC(C)(C(=O)NC1CCCC1)N(C(=O)CNC(=O)c1ccccc1)c1c(C)n(C)n(-c2ccccc2)c1=O (configuration not stated),i,-18%
O=C1NC(c2ccc(Cl)cc2)=COc2ccccc21,-7%,1%
C=CCn1c(=O)c(C=Nc2cccnc2Cl)c(O)n(CCCC)c1=O,-9%,-18%
CC(C)(C)OC(=O)NCCCCCNC(=O)c1[nH]cnc1C(=O)Nc1cccc(Cl)c1,-18%,?
Oc1cc(-c2cccs2)cc2c1OCCN(Cc1cn[nH]c1-c1ccc(Cl)cc1)C2,0%,-11%
O=C(CN1CCC(O)(c2ccccc2F)CC1)NCCc1c[nH]c2ccccc12,45%[activator],45%[activator]

Screening results as filed in PubChem BioAssay.

Compounds as they come. About 0.82% of those tested had a hit in this group.
